Bioassay records deposited in PubChem by several laboratories.
RanGTP-Impb inh: disruptors of Ran-importin-beta complex formation – biochemical, FRET, CFP-Ran, YFP-importin-beta, homogeneous, primary screen; cell-free CFP-Ran/YFP-importin-beta FRET ratio; inhibition, % (test concentration not listed); 300,000 tested, 1.1% active; AID 2216;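 active means most replicates above 15%; inconclusive means exactly half above 15%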;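 further: 0% = DMSO wells and 100% = Ran loaded with GDP instead of GTP; wells of about 40 µL received 100 nL stock; the first replicate is given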
HNF4A DNA FP: change in binding of human HNF4 alpha to DNA; 360,000 tested, 0.3% active; activity change, % at 10 µM; P41235; AID 1224865; HNF4a-FITC DNA binding, fluorescence polarization, 1 h; in the data active means activity change above about 30%, passing the limit was not always enough;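 further: controls were the assay level and a saturating level of protein; the project sought stronger binding though the title names inhibitors; some compounds called inactive have numbers as strong as hits; positive values seem to mean higher polarization but the record does not say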
FGF22 binding: FGF22 (human) thermal shift binding | Q9HCT0 | recombinant FGF22 thermal shift, SYPRO orange fluorescence; percent of sucrose octasulfate shift, DMSO zero | calls only at 9.99 µM | 340,000 tested, 1.5% active;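 active means melting point raised past a set limit in the mean and every replicate; inconclusive means no clear call; three in four hits are not shown here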
Target sequence (Q9HCT0 whole entry, looked up): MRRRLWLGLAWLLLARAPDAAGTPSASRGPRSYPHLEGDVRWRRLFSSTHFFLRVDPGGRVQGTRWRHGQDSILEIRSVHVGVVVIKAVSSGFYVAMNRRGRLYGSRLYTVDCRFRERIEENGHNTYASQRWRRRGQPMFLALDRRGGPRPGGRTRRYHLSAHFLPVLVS
Vif A3G: inhibitors of Vif binding to APOBEC3G peptide, primary screen, biochemical, TR-FRET, GST-Vif 1-94, biotin-A3G peptide, dose response retest (AID 1117319); one-dose inhibition, %; IC50 in µM for titrated hits; 260,000 tested, 0.57% active; TR-FRET GST-Vif / biotin-A3G peptide binding; higher % means a stronger effect; test concentration not given here; strong numbers were not always called active;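 active means above the screen mean plus three standard deviations and confirmed in dose response; inconclusive means results disagree or hit not tested in dose response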;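 further: Vif residues 1-94 fused to GST binding biotinylated APOBEC3G peptide 110-148; 0% = full assay without inhibitor and 100% = GST in place of GST-Vif; retest series ran down from 100 µM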
Ecoli growth: E. coli growth inhibition; AID 1053175; 330,000 tested, 0.21% active; Escherichia coli growth, OD600, 23 h; hits give low values; OD600 absorbance (no concentration beside the values);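 active means OD600 absorbance below the run mean of sample wells minus 3.6 SD, in any replicate, cut at about 0.56 in these data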;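 further: stock transfer was 300 nL into about 60 µL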
UCH37 DUB inh: human UCH37 deubiquitinating enzyme inhibition; Q9Y5K5; purified proteasome/UCH37, Ub-AMC cleavage fluorescence; inhibition, % (no concentration beside the values); 330,000 tested, 0.33% active;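 active means mean of two replicates above 20%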;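 further: 0% = compound-free wells with enzyme and 100% = wells lacking proteasome; stock transfer was 100 nL into about 20 µL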
Target sequence (Q9Y5K5 whole entry, looked up): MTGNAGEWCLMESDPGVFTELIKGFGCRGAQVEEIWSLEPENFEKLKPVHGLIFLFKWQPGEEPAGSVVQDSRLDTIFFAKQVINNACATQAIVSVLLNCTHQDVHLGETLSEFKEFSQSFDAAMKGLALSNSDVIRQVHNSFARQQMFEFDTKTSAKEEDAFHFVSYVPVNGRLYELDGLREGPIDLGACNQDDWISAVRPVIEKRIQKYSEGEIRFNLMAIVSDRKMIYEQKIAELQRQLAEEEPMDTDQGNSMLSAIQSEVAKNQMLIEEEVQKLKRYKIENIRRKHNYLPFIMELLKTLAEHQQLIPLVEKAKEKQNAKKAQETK
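Material: human UCH37 enzyme supplied as purified proteasome complex / Amount: 0.15 nM proteasome as dispensed / Buffer or medium: pH 7.4 Tris-HCl (50 mM) with ovalbumin, ATP-MgCl2, DTT / Times: preincubation 30 min, reaction 25 min, room temperature / Technique: AMC fluorescence from Ub-AMC cleavage, excitation 355 nm, emission 460 nm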
AF4-AF9 inh: MLL-AF4/AF9 protein interaction inhibition; P42568; AlphaScreen, biotin-AF4 peptide binding to FLAG-AF9; inhibition, % at 10 µM; 350,000 tested, 0.47% active; AID 651704;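 active means every replicate reaching a set inhibition limit, whatever the replicate mean, cut at about 25% in these data; inconclusive means mean inhibition reaches that limit but some replicates miss it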;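 further: 0% = plate neutral control median and 100% = total signal loss; the record names both 10 and 1 µM as test concentration; the first replicate is given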
Target sequence (P42568 whole entry, looked up): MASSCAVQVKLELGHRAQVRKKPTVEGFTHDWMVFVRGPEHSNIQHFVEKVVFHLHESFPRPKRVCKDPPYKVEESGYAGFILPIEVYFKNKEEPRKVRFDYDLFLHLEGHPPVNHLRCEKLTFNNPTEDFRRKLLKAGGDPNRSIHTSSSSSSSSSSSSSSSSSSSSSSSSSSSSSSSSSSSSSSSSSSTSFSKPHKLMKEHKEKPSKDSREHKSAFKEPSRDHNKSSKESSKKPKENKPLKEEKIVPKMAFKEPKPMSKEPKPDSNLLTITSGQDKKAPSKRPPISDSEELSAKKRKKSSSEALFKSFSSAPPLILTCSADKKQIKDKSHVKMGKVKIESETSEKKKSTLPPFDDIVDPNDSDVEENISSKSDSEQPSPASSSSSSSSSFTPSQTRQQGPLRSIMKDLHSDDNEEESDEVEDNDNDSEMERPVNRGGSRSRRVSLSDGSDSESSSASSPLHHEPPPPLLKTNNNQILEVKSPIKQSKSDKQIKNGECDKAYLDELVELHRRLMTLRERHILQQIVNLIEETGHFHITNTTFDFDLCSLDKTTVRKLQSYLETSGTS
Active calls of the source: *; i = inactive; ? = inconclusive; / = no result given; & = joins results of further samples. Some of the compounds tested (hit frequency here may not be typical).

SMILES	RanGTP-Impb inh	HNF4A DNA FP	FGF22 binding	Vif A3G	Ecoli growth	UCH37 DUB inh	AF4-AF9 inh
CSc1ccccc1OCc1cc(C(=O)N2CCc3[nH]cnc3C2c2ccccn2)no1 (stereo unspecified)	-1.5	-2.9	i	/	0.7	0.0	20
O=C(NCCOc1ccccc1)c1cccc(S(=O)(=O)NCc2ccccc2)c1	/	-0.6	i	0%	0.69	4.4	-4.3
COc1ccc(NC(=O)CSC2=NCCN2)cc1	1.5	-3.5	i	/	0.7	7.8	-3.6
COc1ccc(C(=O)c2cnc3ccccc3c2-c2ccccc2)cc1	4.6	-6.6	/	1%	0.72	3.0	/
CCCC(c1nnnn1Cc1ccc(F)cc1)N1CCN(C)CC1 (stereo unspecified)	8.3	-3.9	/	/	0.66	2.5	-0.5
O=C(COc1cccc(C(F)(F)F)c1)NNC(=O)Cc1ccc(S(=O)(=O)N2CCOCC2)s1	/	11	i	-11%	0.66	0.3	-0.8
Cc1nc2cc(Cl)ccc2n1-c1ccccc1	-1.9	5.4	/	3%	0.68	1.9	/
C[C@H](CO)N1C[C@H](C)[C@@H](CN(C)S(=O)(=O)c2cccs2)Oc2c(NS(=O)(=O)c3cn(C)cn3)cccc2C1=O	/	-1.0	i	/	0.75	-3.3	-3.1
CN1C(=O)CSc2ccc(NC(=O)NCc3ccco3)cc21	-2.2	0.9	/	-2%	0.7	5.3	/
Cc1cccc(C(=O)NCC(=O)OCC(=O)N2CCc3ccccc32)c1	-0.6	-0.5	i	/	0.72	2.1	-0.2
Cc1sc2nc(C(C)C)nc(SCC(=O)N3CCN(C(=O)c4ccco4)CC3)c2c1C	1.8	-0.3	/	-12%&1%	0.64	0.8	/
CSc1nc(N)nc(SCC(=O)C(C)(C)C)c1C#N	-1.8	1.9	/	-12%	0.74	6.9	/
Clc1ccc(CN2CCN(c3ncccn3)CC2)cc1	2.2	-3.0	i	/	0.62	7.0	-2.0
CCn1c(C)c(C)c2cc(C(=O)NCCCN3CCOCC3)ccc21	0.2	2.4	i	5%	0.68	1.6	6.3
Cc1ccc(C)c(OCC(=O)Nc2c(C)n(C)n(-c3ccccc3)c2=O)c1	/	1.6	i	-14%	0.66	1.5	-3.1
CCOC(=O)c1sc2nc(C)n(N)c(=O)c2c1C	-1.8	3.3	i	10%	0.64	3.8	4.2
O=C(CN1CCCCC1)Nc1cccc(Cl)c1Cl	2.0	-3.3	/	4%	0.76	2.2	/
O=C(COc1ccccc1O)NCCN1CCOCC1	6.5	0.8	i	/	0.65	1.8	-2.0
COc1ccc(/C=N/NC(=O)c2c(-c3ccccc3)noc2C)cc1	5.0	1.7	i	-5%	/	/	4.8
CCOC(=O)N1CCN(C(=O)c2oc3ccc(S(=O)(=O)N4CC(C)CC(C)C4)cc3c2C)CC1 (stereo unspecified)	-3.3	-1.0	/	8%	0.67	0.1	/

One compound at a time, from the list above:
Profile of O=C(CN1CCCCC1)Nc1cccc(Cl)c1Cl → RanGTP-Impb inh: 2.0; HNF4A DNA FP: -3.3; FGF22 binding: /; Vif A3G: 4%; Ecoli growth: 0.76; UCH37 DUB inh: 2.2; AF4-AF9 inh: /
Profile of CCn1c(C)c(C)c2cc(C(=O)NCCCN3CCOCC3)ccc21 → RanGTP-Impb inh: 0.2; HNF4A DNA FP: 2.4; FGF22 binding: i; Vif A3G: 5%; Ecoli growth: 0.68; UCH37 DUB inh: 1.6; AF4-AF9 inh: 6.3

Continued:
SMILES	RanGTP-Impb inh	HNF4A DNA FP	FGF22 binding	Vif A3G	Ecoli growth	UCH37 DUB inh	AF4-AF9 inh
O=C(CSc1nnc2ccccn12)NCc1cccs1	-4.3	-2.6	/	1%	0.73	-0.7	/
CCC(=O)N1CCC(C)(C(=O)NCc2cccc(OC)c2)C1 (stereo unspecified)	/	3.8	i	/	/	/	-0.9
COc1ccc(CC(NC(C)=O)C(=O)NC2CCN(C(=O)NCc3ccccc3)CC2)cc1 (stereo unspecified)	-1.9	-1.7	i	0%&2%	0.72	1.1	8.7
Cc1ccc(C(CNS(=O)(=O)c2ccc(Br)cc2)N2CCN(C)CC2)cc1 (stereo unspecified)	?	2.2	i	-9%	0.7	2.5	1.1
Cc1cc(NC(=O)CCC(=O)N(c2ccc(C)c(F)c2)C(C(=O)NC2CCCC2)c2ccco2)no1 (stereo unspecified)	-2.0	-0.6	i	/	0.68	0.8	?
O=C1CCNCCN1[C@H](CO)Cc1ccccc1	1.4	-1.7	i	/	/	-1.0	-10
CCOC(=O)CSc1nnc(Cc2cc(=O)[nH]c(=O)[nH]2)n1-c1ccc(Cl)cc1	2.8	-2.3	/	5%	0.76	0.1	/
CC(CN1CCCCC1)NC(=O)c1cccs1 (stereo unspecified)	-2.5	0.4	i	/	0.66	0.9	1.7
C=CCOc1ccc(/C=N/NC(=O)C(C)Sc2ccccn2)cc1OC (stereo unspecified)	-2.5	-2.5	i	/	/	/	1.3
CCc1ccccc1NC(=O)Nn1cnnc1	-0.8	6.2	i	-5%	0.7	0.1	-0.9

3 entries already listed, sorted by their value in HNF4A DNA FP, high to low:
| compound | HNF4A DNA FP |
| --- | --- |
| CSc1nc(N)nc(SCC(=O)C(C)(C)C)c1C#N | 1.9 |
| CCOC(=O)N1CCN(C(=O)c2oc3ccc(S(=O)(=O)N4CC(C)CC(C)C4)cc3c2C)CC1 (stereo unspecified) | -1.0 |
| COc1ccc(NC(=O)CSC2=NCCN2)cc1 | -3.5 |

Next compounds
SMILES	RanGTP-Impb inh	HNF4A DNA FP	FGF22 binding	Vif A3G	Ecoli growth	UCH37 DUB inh	AF4-AF9 inh
O=S(=O)(Nc1ccc(-c2nc3ccccc3o2)cc1)c1ccccc1	-3.1	1.8	/	-8%	0.7	-1.3	/
Cc1ccc(-n2ncc3c(=O)[nH]c(SC(C)C)nc32)cc1	/	0.0	i	-3%	0.75	6.8	?
CSC(C1CCCC1)n1nnc2ccccc21 (stereo unspecified)	1.4	4.2	i	/	0.75	-3.9	-3.5
COc1ccc(C=O)cc1CSc1nnc(COc2cccc3cccnc23)o1	?	0.3	/	12%	0.79	0.8	/
Cc1ccc(C(=O)Nc2nc(-c3cc(Cl)sc3Cl)cs2)cc1	2.6	-2.8	/	3%	0.71	0.3	/
CCn1c(COc2ccc3c(c2)CCCC3)nnc1SCC(=O)Nc1nccs1	0.9	0.5	i	-2%	0.73	1.5	2.3
CCn1c(SCC(=O)Nc2cccc(C)c2)nc2nc3c(cc2c1=O)COC(C)(C)C3	-1.6	0.9	i	9%	0.71	3.4	20
COc1cc2c(cc1OC)CN(C(=O)c1ccc3[nH]c(C)c(C)c3c1)CC2	-1.1	4.6	i	/	0.71	2.2	1.5
Cc1nn(C)cc1CN(C)C(=O)c1nn2c(c1Cl)NC(c1cccs1)CC2C(F)(F)F (stereo unspecified)	?	-3.3	/	-4%	0.64	2.0	/
CCOc1ccc(CNC(=O)C2CCCN(S(=O)(=O)N3CCC(C)CC3)C2)cc1OC (stereo unspecified)	/	-0.7	i	-4%	/	/	-2.3
O=C(O)c1ccc(-c2cccc([N+](=O)[O-])c2)o1	2.7	-0.1	i	6%	0.72	5.2	12
FC(F)(F)c1ccccc1Cc1c(-c2ccc(Cl)cc2)nc2ccc(Br)cn12	/	8.3	i	/	/	/	-0.9
Cc1cc(=O)oc2cc(OCC(=O)N3CCN(C(=O)C4COc5ccccc5O4)CC3)ccc12 (stereo unspecified)	0.6	-1.4	i	/	0.67	-35	-2.4
Cc1cc(/C=N/NC(=O)CC2(C)OCCO2)c(C)n1-c1cc(Cl)cc(Cl)c1	-2.9	2.9	/	24%	/	/	/
COC(=O)COc1ccsc1C(=O)OC	0.4	0.0	i	5%	0.64	0.1	12
Cc1ccc(CN(Cc2ccc(C)o2)C(=S)NCC(=O)O)cc1	-2.2	-0.5	/	-9%	0.73	6.8	/
Cn1c(Cn2c(=O)sc3ccccc32)nnc1SCC(=O)N1CCc2ccccc21	/	2.7	i	32%	0.72	2.3	-2.4
CC[C@]12c3[nH]c4cc(-c5ccco5)ccc4c3CCN1C(=O)[C@@H](CC(=O)NCCc1ccccn1)C[C@@H]2C(=O)N1CCN(C(=O)c2ccco2)CC1	/	0.0	i	/	0.71	-23	6.2
CSc1ccccc1C(=O)N1CCC(n2nccc2NC(=O)C(C)(C)C)CC1	0.6	3.3	i	-5%	0.72	0.3	-0.1
CCCCn1c(N)c(N(C)C(=O)c2ccc(-n3cccn3)cc2)c(=O)[nH]c1=O	/	3.5	i	3%	0.71	-0.5	-0.8
COc1ccc(C2(c3ccc(OC)cc3)NC(=O)NC2=O)cc1	?	-1.6	i	-1%	0.68	1.0	-1.9
Brc1cccc(-c2nnc3n2CCC3)c1	1.3	3.6	i	0%	0.69	2.2	0.6
O=C(O)c1cccc(NC(=S)NC(=O)c2ccc(-c3ccc(Cl)cc3)o2)c1	-0.5	8.3	i	-14%	0.73	10	-3.0
O=C(O)C1C2C=CC(C2)C1C(=O)NC1CCN(Cc2ccccc2)CC1 (stereo unspecified)	-0.1	3.3	/	0%	0.68	-1.5	/
Cc1cccn2c(=O)c(/C=C(\C#N)C(=O)NC3CCS(=O)(=O)C3)c(N3CC(C)OC(C)C3)nc12 (stereo unspecified)	?	1.3	i	14%	0.68	-1.7	/
O=C(NCC1COc2ccccc2O1)C1CCN(S(=O)(=O)c2ccccc2)CC1 (stereo unspecified)	/	2.1	i	/	0.7	-0.5	-1.9
CC1CCCCN1CCCNc1ccc(C(CC(N)=O)NC(=O)Cc2ccc(Br)cc2)cc1[N+](=O)[O-] (stereo unspecified)	-0.8	-1.5	i	/	0.65	-1.5	1.5
Cc1ccc(COc2ccc(/C=N/NC(=O)c3nnn(-c4nonc4N)c3COc3ccc(F)cc3)cc2)cc1	-1.7	1.3	i	-3%	/	/	-1.8
CCN(CC1CCCO1)C(=O)c1cc(COc2cc(C)c(Cl)c(C)c2)on1 (stereo unspecified)	-0.4	1.6	i	/	0.7	4.4	1.4
Cc1ccc(-n2c(SCC(=O)N3CC(=O)Nc4ccccc43)nc3ccccc3c2=O)cc1C	6.0	2.7	i	/	0.69	3.4	0.7
CC1CCN(C(=O)c2[nH]cnc2C(=O)N(C)Cc2ccccc2)CC1	/	-4.2	i	/	0.71	1.7	2.3
O=C(CSc1cccc2cccnc12)N/N=C/c1ccncc1	-0.7	-5.0	i	13%	/	/	-1.1
CC(C)(/C=N/NC(=O)CSCc1ccc(Cl)cc1)CCC#N	2.9	-7.2	i	-7%	/	/	-1.1
Cc1onc(-c2ccccc2Cl)c1C(=O)Nc1ccc2c(c1)OCO2	-2.9	-8.5	/	4%	0.71	1.8	/
COc1ccccc1OCC(=O)OCc1cc(-c2ccco2)on1	/	5.1	i	/	/	/	-1.7
CC(=O)Nc1ccc(Sc2ncccc2C(=O)Nc2cc(Cl)cc(Cl)c2)cn1	1.3	1.6	/	-28%	0.69	-0.6	-26
O=C1Cc2cccc3cccc1c23	-0.6	1.2	/	-1%	0.64	-234	/
CCCN(CC(=O)Nc1ccc(C(N)=O)cc1)CC(=O)Nc1cc(Cl)ccc1Cl	?	1.6	i	15%	0.68	0.0	-1.4
COc1ccc(S(=O)(=O)N(CC(=O)N2CCOCC2)c2ccc(F)cc2)cc1OC	1.4	-1.6	i	/	0.67	0.3	0.4
COc1ccc(C2C(O)C(c3c[nH]c4ccccc34)=NN2C(=O)CCl)cc1 (stereo unspecified)	-4.3	3.9	i	/	0.69	1.5	8.5
CSCCC(NC(=O)c1ccccc1)C(=O)O (stereo unspecified)	-3.6	4.3	i	2%	0.65	5.6	0.2
O=C(NCCCc1ccccc1)c1ccncc1	-1.8	-1.5	/	5%	0.69	3.1	/
